Screening results: PubChem, Broad Institute
AF4-AF9 inh: blocks AF4 peptide binding to human AF9. P42568. AlphaScreen, biotin-AF4 peptide binding to FLAG-AF9. 350,000 tested, 0.47% active. inhibition, % at 10 µM;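 active = every replicate reaching a set inhibition limit, whatever the replicate mean, cut at about 25% in these data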;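 note: 0% = plate neutral control median and 100% = total signal loss; the record names both 10 and 1 µM as test concentration; the first replicate is given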
Target sequence (P42568 whole entry, looked up): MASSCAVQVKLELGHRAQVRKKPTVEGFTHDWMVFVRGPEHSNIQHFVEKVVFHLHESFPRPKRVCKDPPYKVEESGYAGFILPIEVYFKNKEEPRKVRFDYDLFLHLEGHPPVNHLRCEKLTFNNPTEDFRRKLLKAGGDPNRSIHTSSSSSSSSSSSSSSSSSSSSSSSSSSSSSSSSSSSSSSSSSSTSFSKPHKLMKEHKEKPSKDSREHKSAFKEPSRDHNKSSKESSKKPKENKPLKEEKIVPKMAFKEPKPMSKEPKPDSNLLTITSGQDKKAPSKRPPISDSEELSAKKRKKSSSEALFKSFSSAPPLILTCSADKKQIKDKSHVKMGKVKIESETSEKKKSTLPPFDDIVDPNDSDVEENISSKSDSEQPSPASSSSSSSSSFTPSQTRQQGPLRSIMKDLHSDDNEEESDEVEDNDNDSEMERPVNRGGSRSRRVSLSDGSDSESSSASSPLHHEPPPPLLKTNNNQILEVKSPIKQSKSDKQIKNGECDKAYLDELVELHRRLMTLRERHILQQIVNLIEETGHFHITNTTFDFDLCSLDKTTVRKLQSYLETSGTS
Ecoli rRNA inh: inhibits bacterial ribosomal RNA function over humanized ribosomes. 350,000 tested, 1.6% active. E. coli WT GFP vs humanized-ribosome RFP mutants, fluorescence, 24 h; hits give low values; DMSO median 0, no signal -100. AID 720706. GFP signal change (wild-type ribosome), % (no concentration beside the values);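 active = significant combined selectivity score with lowered wild-type GFP, culture density cut under 30%, mutant RFP and density less affected; inactive = any of these conditions unmet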; note: one replicate is shown; some compounds called inactive have numbers as strong as hits
FGF22 binding: shifts melting point of recombinant human FGF22 | Q9HCT0 | recombinant FGF22 thermal shift, SYPRO orange fluorescence; percent of sucrose octasulfate shift, DMSO zero | calls only at 9.99 µM | 340,000 tested, 1.5% active | AID 651658;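 active = melting point raised past a set limit in the mean and every replicate; three in four hits are not shown here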
Target sequence (Q9HCT0 whole entry, looked up): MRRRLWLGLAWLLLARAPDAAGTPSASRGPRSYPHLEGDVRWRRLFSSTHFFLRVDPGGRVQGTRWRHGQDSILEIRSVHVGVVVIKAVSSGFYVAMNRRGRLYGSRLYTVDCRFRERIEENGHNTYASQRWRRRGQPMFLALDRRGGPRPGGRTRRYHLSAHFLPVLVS
Ecoli rRNA inh OD600: second read-out of Ecoli rRNA inh, no call of its own (marks repeat the call); OD600 change, %; measured here: OD600 growth;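 optical density of the mix in the first replicate; 0 = DMSO median and -100 = no signal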
Ecoli rRNA inh RFP: recorded beside Ecoli rRNA inh, whose call it bears; RFP signal change, %; measured here: RFP humanized mutant strains;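 first replicate; 0 = DMSO median and -100 = no signal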
* hit, by the source's call; i = inactive; x = no result given; & = joins results of further samples. An excerpt; the hit share may differ from the screen's.

SMILES	AF4-AF9 inh	Ecoli rRNA inh	Ecoli rRNA inh OD600	Ecoli rRNA inh RFP	FGF22 binding
CCCC#Cc1ccc2c(c1)O[C@@H](CN(C)Cc1cncnc1)[C@@H](C)CN([C@@H](C)CO)S2(=O)=O	4.3	-4.9	-10.7	3.7	i
COc1ccccc1C(=O)N1C[C@@H]2[C@H](c3ccccc31)[C@H](CO)N2C(=O)C1CCCCC1	-3.0	-0.5	3.6	-3.6	i
C=CCNc1ncnc2c1ncn2[C@H]1CN(Cc2ccco2)C[C@@H](CO)O1	-2.6	11.1	23.5	-2.4	i
C[C@@H]1CN([C@@H](C)CO)C(=O)c2cc(NC(=O)Nc3cccc4ccccc34)ccc2O[C@@H](C)CCCCO[C@@H]1CN(C)S(=O)(=O)c1ccc(F)cc1	-3.5	5.5	3.7	-1.9	i
O=C(NC1CCC1)[C@H]1[C@H](CO)[C@H]2Cn3c(ccc(-c4ccccc4F)c3=O)[C@H]2N1Cc1cocn1	2.4	-0.2	-1.1	-2.3	i
C[C@@H]1CN([C@H](C)CO)C(=O)c2cc(NS(=O)(=O)c3cccs3)ccc2O[C@@H]1CN(C)C(=O)Nc1ccc(C(F)(F)F)cc1	-0.7	-3.5	-17.9	-0.2	i
CO[C@@H]1CN(C)C(=O)c2cc(NC(=O)C3CCOCC3)ccc2OC[C@H](C)NC[C@@H]1C	-1.4	0.7	-1.7	-2.5	i
Cc1ccc(S(=O)(=O)N(C)C[C@@H]2OCCCC[C@@H](C)Oc3ccc(NS(=O)(=O)c4cccs4)cc3C(=O)N([C@@H](C)CO)C[C@H]2C)cc1	0.4	-0.2	-5.4	2.5	i
C[C@H]1CN([C@@H](C)CO)S(=O)(=O)c2ccc(C#Cc3ccncc3)cc2O[C@@H]1CN(C)C(=O)c1ccncc1	-4.7	-0.2	5.8	2.7	i
COc1ccccc1NC(=O)N[C@H]1CC[C@H](CCNC(=O)c2ccc3c(c2)OCO3)O[C@H]1CO	-0.8	-0.2	1.9	1.0	i
COC(=O)C[C@@H]1CC[C@@H]2[C@@H](COc3ccc(NC(=O)c4cccc(OC)c4)cc3C(=O)N2C)O1	1.1	-2.4	-2.5	-1.4	i
CC(=O)N1CCCCN2[C@H](CO)[C@@H](c3ccc(-c4ccc(C)cc4)cc3)[C@H]2C1	-1.7	5.5	-16.1	-1.1	i
CCOC(=O)C1=C[C@@H](C(C)C)N(S(=O)(=O)c2ccc(C)cc2)[C@H]1c1ccc(C(F)(F)F)cc1	-1.6	11.1	16.3	-7.4	x
CO[C@@H]1CN(C)C(=O)c2cc(NC(=O)c3cccc(F)c3)ccc2OC[C@@H](C)N(C)C[C@H]1C	2.3	0.4	-0.2	-2.1	i
CCN1CCCSC1=S	-3.5	24.8	1.1	1.1	i
O=C(C[C@H]1CC[C@@H](NC(=O)Nc2ccccc2F)[C@H](CO)O1)NCc1ccccc1	-1.5	1.0	-2.3	0.1	i
COc1cc(OC)nc(Nc2nc(C(N)c3ccccc3)cs2)n1 (centres undefined)	5.1	-61.5	-80.2	-18.9	i
C[C@@H]1CN([C@@H](C)CO)S(=O)(=O)c2ccc(-c3ccccc3F)cc2O[C@@H]1CN(C)C	-3.7	0.1	9.6	-2.0	i
CCS(=O)(=O)Nc1ccc2c(c1)C(=O)N(C)C[C@H](OC)[C@H](C)CN(C(=O)NC(C)C)[C@H](C)CO2	-0.6	-1.4	-2.3	0.2	i
CO[C@H]1CN(C)C(=O)c2cc(NC(C)=O)ccc2OC[C@@H](C)N(Cc2ccncc2)C[C@H]1C	-1.4	-2.1	7.9	-1.3	i

Just AF4-AF9 inh, Ecoli rRNA inh OD600 and FGF22 binding, for two of the compounds above:
molecule	AF4-AF9 inh	Ecoli rRNA inh OD600	FGF22 binding
CCOC(=O)C1=C[C@@H](C(C)C)N(S(=O)(=O)c2ccc(C)cc2)[C@H]1c1ccc(C(F)(F)F)cc1	-1.6	16.3	x
O=C(C[C@H]1CC[C@@H](NC(=O)Nc2ccccc2F)[C@H](CO)O1)NCc1ccccc1	-1.5	-2.3	i

Further compounds follow.
SMILES	AF4-AF9 inh	Ecoli rRNA inh	Ecoli rRNA inh OD600	Ecoli rRNA inh RFP	FGF22 binding
C[C@H]1CCCCO[C@@H](CN(C)CC2CCCCC2)[C@@H](C)CN([C@@H](C)CO)C(=O)c2cc(NS(=O)(=O)c3cn(C)cn3)ccc2O1	-0.5	2.2	4.8	0.7	i
O=C(Nc1ccc(Cl)cc1)N[C@@H]1CC[C@H](CCn2cc(-c3ccccc3F)nn2)O[C@@H]1CO	0.0	-34.4	-65.5	12.4	i
O=C(C[C@@H]1CC[C@H]2[C@@H](COC[C@@H](O)CN2Cc2ccc(F)cc2)O1)NCCc1ccccc1	-1.1	-2.5	3.2	-0.7	i
COc1ccc(C#Cc2cnc3c(c2)C(=O)N([C@H](C)CO)C[C@@H](C)[C@@H](CN(C)C(=O)CN(C)C)O3)cc1	-13.6	2.6	10.7	0.8	i
O=C(NC1CCN(Cc2ccccc2)CC1)c1ccc(CS(=O)c2ccccc2Cl)o1 (centres undefined)	1.5	10.6	13.7	-2.0	i
CCC(=O)N(C)C[C@H]1Oc2cc(-c3cccc(C#N)c3)ccc2S(=O)(=O)N([C@H](C)CO)C[C@@H]1C	-0.7	-2.9	-12.4	-3.6	i
O=C(C[C@@H]1C[C@@H]2c3cc(NC(=O)C4CCOCC4)ccc3O[C@@H]2[C@H](CO)O1)NCCc1ccccc1	1.3	2.4	7.7	0.0	i
N#C[C@H]1N[C@H](CO)[C@H]1c1ccc(C2=CCCC2)cc1	-1.6	5.0	14.8	-4.4	i
Nc1sc(Cc2ccccc2)cc1C(=O)NC1CCCCC1	-0.9	-1.9	-0.4	22.7	i
CCCC#Cc1ccc([C@@H]2[C@H](CO)N3CCCCN(C(=O)c4ccc5c(c4)OCO5)C[C@@H]23)cc1	12.8	-58.2	-73.2	-13.4	i
C[C@H]1CN([C@@H](C)CO)C(=O)Cc2cc(NC(=O)C3CC3)ccc2O[C@@H]1CN(C)S(C)(=O)=O	1.1	3.5	1.7	1.0	i
C[C@H](CO)N1C[C@H](C)[C@@H](CN(C)Cc2cccnc2)Oc2ncc(C3=CCCCC3)cc2C1=O	0.3	-0.2	11.3	-0.3	i
CN(C)C(=O)[C@H]1[C@H](CO)[C@H]2Cn3c(ccc(-c4cccnc4)c3=O)[C@@H]1N2C(=O)NC1CCCC1	-1.3	0.9	1.2	-1.5	i
Cc1noc(C)c1S(=O)(=O)N(C)C[C@@H]1OCCCC[C@H](C)Oc2ccc(NS(=O)(=O)c3ccccc3)cc2C(=O)N([C@H](C)CO)C[C@H]1C	1.1	-0.6	4.8	-0.6	i
C[C@@H]1CN([C@H](C)CO)C(=O)CCCn2nncc2CO[C@@H]1CN(C)C(=O)c1ccccc1	-0.6&-0.9	7.1&1.4	11.4&-1.7	0.2&-0.7	i
C[C@@H]1CN([C@@H](C)CO)C(=O)c2cc(NS(=O)(=O)c3ccc(Cl)cc3)ccc2O[C@H]1CN(C)Cc1ccc(Oc2ccccc2)cc1	1.1	1.5	-6.5	1.8	i
CC(C)(C)NC(=O)C1c2ccccc2OCC(=O)N1C1CC1 (centres undefined)	0.8	9.1	5.8	-0.8	i
COc1ccc(C#Cc2ccc3c(c2)O[C@H](CN(C)C(=O)c2ccccn2)[C@@H](C)CN([C@H](C)CO)S3(=O)=O)cc1	3.8	0.7	-2.8	2.7	i
OC(c1ccccc1)(c1ccccc1)C1CCN(CCCOc2cccc(OC(F)(F)F)c2)CC1	2.0	-48.8	-79.0	-16.9	i
CN(C)C(=O)c1cccc(-c2ccc3n(c2=O)C[C@@H]2[C@@H](CO)[C@H](C(=O)NCC(F)(F)F)[C@H]3N2C)c1	-0.6	4.7	3.4	-1.1	i

Molecules from the list above containing a cyano group:
SMILES	AF4-AF9 inh	Ecoli rRNA inh	Ecoli rRNA inh OD600	Ecoli rRNA inh RFP	FGF22 binding
CCC(=O)N(C)C[C@H]1Oc2cc(-c3cccc(C#N)c3)ccc2S(=O)(=O)N([C@H](C)CO)C[C@@H]1C	-0.7	-2.9	-12.4	-3.6	i
N#C[C@H]1N[C@H](CO)[C@H]1c1ccc(C2=CCCC2)cc1	-1.6	5.0	14.8	-4.4	i

(cont.)
SMILES	AF4-AF9 inh	Ecoli rRNA inh	Ecoli rRNA inh OD600	Ecoli rRNA inh RFP	FGF22 binding
O=C(NCC[C@H]1CC[C@@H](NS(=O)(=O)c2cccc(F)c2)[C@H](CO)O1)c1cnccn1	-1.1	3.0	14.6	-1.6	i
C[C@H](CO)N1C[C@H](C)[C@@H](CN(C)C(=O)c2ccncc2)OCCCC[C@H](C)Oc2ccc(NS(=O)(=O)c3ccccc3)cc2C1=O	-0.9	0.6	8.7	0.2	i
C[C@H](O)C#Cc1ccc([C@H]2[C@H](CO)N3CCCCN(S(=O)(=O)c4ccccc4)C[C@@H]23)cc1	-2.2	3.9	12.7	1.2	i
C[C@@H]1CN([C@H](C)CO)C(=O)c2cc(NS(=O)(=O)c3cccs3)ccc2O[C@@H](C)CCCCO[C@H]1CN(C)C(=O)Nc1ccc(F)cc1	-0.6	-0.2	-0.4	2.7	i
O=C(c1ccc(Cl)c(Cl)c1)N1CCC(=O)N([C@H](COCc2ccccc2)Cc2ccccc2)CC1	-1.8	-5.5	-8.5	3.9	i
Cc1ccc(-c2ccc3c(c2)O[C@@H](CN(C)Cc2cccnc2)[C@@H](C)CN([C@@H](C)CO)S3(=O)=O)cc1	9.8	-40.8	-56.3	13.8	i
C[C@H](CO)N1C[C@H](C)[C@@H](CN(C)S(=O)(=O)c2ccc(-c3ccccc3)cc2)OCc2cnnn2CCCC1=O	1.9	-6.8	-11.4	3.2	i
CN(C)c1ccc(-c2ccnc3c2CC(C)(C(=O)NCC2CCOCC2)O3)cc1 (centres undefined)	6.1	8.4	9.6	0.3	i
CO[C@H]1CN(C)C(=O)c2cc(NC(=O)c3ccccc3F)ccc2OC[C@H](C)N(C(=O)c2ccccc2F)C[C@@H]1C	0.8	0.9	1.4	-3.3	i
COCCNC(=O)C[C@@H]1CC[C@H]2[C@@H](COC[C@H](O)CN2C(=O)c2cc(Cl)cc(Cl)c2)O1	-30.5	0.4	-3.4	-0.6	i
S=c1[nH]c2ccccc2n1CCc1ccncc1	-2.0	2.9	9.3	-1.0	i
CN(C)C(=O)C[C@@H]1C[C@H]2c3cc(NC(=O)CC4CC4)ccc3O[C@H]2[C@@H](CO)O1	-0.8	0.3	9.0	-1.7	i
CCCNC(=O)N1[C@H](CNC(=O)c2ccc(F)cc2)[C@@H](c2ccccc2)[C@@H]1CO	0.4	-8.9	-12.8	1.1	i
CN(CCc1ccccc1)C(=O)c1[nH]c(C(F)(F)F)nc1-c1ccccc1	-1.0	-7.4	4.2	4.7	i
C[C@H]1CN([C@@H](C)CO)S(=O)(=O)c2ccc(-c3ccc(C(=O)N(C)C)cc3)cc2O[C@H]1CN(C)C(=O)Cc1ccccn1	-2.9	-3.5	-3.4	-0.6	i
O=S1(=O)N[C@@H](Cc2ccccc2)COc2cc(N3CCC[C@H]3CO)ccc21	0.3	-16.0*	-9.1*	5.9*	i
CCCNC(=O)c1cc(C2CCCCN2C(=O)c2ccc(OC)cc2)on1 (centres undefined)	3.3	6.4	16.0	1.8	i
CCCN(CCC)Cc1cc(=O)oc2cc(C)c(C)cc12	-1.3	0.5	5.3	-0.5	i
C[C@H]1CN([C@@H](C)CO)C(=O)Cc2cc(NC(=O)NC3CCCCC3)ccc2O[C@@H]1CN(C)CC1CCCCC1	2.5	-23.7	-53.8	18.9	i
C[C@H]1CN([C@@H](C)CO)C(=O)Cc2cc(NC(=O)Nc3ccccc3)ccc2O[C@@H]1CN(C)Cc1ccc(Oc2ccccc2)cc1	1.3	3.9	9.5	3.8	i
O=C(NCC1CC1)[C@@H]1[C@@H](CO)[C@@H]2Cn3c(ccc(-c4ccncc4)c3=O)[C@H]1N2CC1CC1	-0.9	0.5	-1.7	-3.7	i
O=S(=O)(Cc1ccccc1)NCC[C@@H]1CC[C@@H](NS(=O)(=O)c2ccccc2)[C@H](CO)O1	-1.1	-2.3	-4.0	-1.0	i
CSc1ccc(CN2CCC(C)(Oc3ccc(CC#N)cc3)C2)cc1 (centres undefined)	2.2	4.7	-4.9	0.7	i
CCC(=O)N(C)C[C@@H]1Oc2cc(C#CCN(C)C)ccc2S(=O)(=O)N([C@H](C)CO)C[C@@H]1C	-0.9	5.7	0.6	-1.6	i
O=C(C[C@@H]1CC[C@H]2[C@@H](COC[C@H](O)CN2S(=O)(=O)c2ccc(F)cc2)O1)NCC1CCCCC1	36.1*	-2.3	6.5	6.5	i
Cc1ccc(S(=O)(=O)N(C)C[C@H]2Oc3ccc(NC(=O)CCCN(C)C)cc3C(=O)N([C@@H](C)CO)C[C@H]2C)cc1	1.1	0.3	5.7	2.8	i
O=C(c1ccc2c(c1)OCO2)N1CC2(C1)[C@@H](c1ccccc1)[C@@H](CO)N2C(=O)C1CCC1	3.6	-2.7	1.3	2.1	i
C[C@H](CO)N1C[C@H](C)[C@@H](CN(C)C(=O)NC2CCCCC2)OCCCC[C@H](C)Oc2ccc(NC(=O)Nc3ccc(F)cc3)cc2C1=O	-0.8	0.8	9.1	-1.8	i
C[C@@H]1CCCCO[C@H](CN(C)Cc2ccc(C(=O)O)cc2)[C@H](C)CN([C@H](C)CO)C(=O)c2cc(NS(=O)(=O)c3ccc(F)cc3)ccc2O1	-1.3	-1.4	5.3	0.6	i
